# High-throughput results as filed in PubChem.
# Six1-Eya2 inh – qHTS Assay for Inhibitors of the Six1/Eya2 Interaction | Homeobox protein SIX1 (Homo sapiens) + Protein phosphatase EYA2 (Homo sapiens), … | AlphaScreen GST-Six1/His-Eya2 binding, biochemical; active compounds read low; control for the full effect not named in the record | activity change, % (test concentration not listed) | 360,000 tested, 0.56% active; in the data active = activity change below about -65%; inconclusive = about -30% to -65%; inactive = above about -30%; also: % is scaled to controls: 0 for no effect and ±100 for the full control effect
#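 Homogeneous AlphaScreen proximity assay pairing GST-Six1 with His-tagged Eya2 (added as 5X mix: 250 nM and 500 nM) in 50 mM Tris pH 8.0, 300 mM NaCl, 1 mM TCEP. Glutathione donor and nickel acceptor beads; 1 h, 37 °C, dark.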
# TRPV1 PAM – HTS Assay for Compounds that Act as Potentiators of the Vanilloid Receptor 1. potentiation, % at 8.33 µM. Transient receptor potential cation channel subfamily V member 1 (Homo sapiens), Q8NER1. AID 540277, 2011. 320,000 tested, 0.02% active. TRPV1-expressing cells, Fluo-8 calcium influx, capsaicin EC20 potentiation; host cell line not named in the record; control for the full effect not named in the record; active means potentiation above 80%; inconclusive means 30% to 80%; inactive means below 30%; also: 0% is about no effect
#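 TRPV1-expressing cells were cultured overnight at 35.5C and loaded with Fluo-8 calcium dye for 40 to 90 min at room temperature. After a 10 s baseline, compound was added and calcium influx was read kinetically for 3 min (ex 480/em 520 nm).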
# D2 ag – Beta-Arrestin HTS for Positive Allosteric Modulators of the Human D2 Dopamine Receptor: Agonists. 360,000 tested, 0.084% active. AID 624465, 2012. D(2) dopamine receptor (Homo sapiens), P14416. DiscoveRx PathHunter D2 beta-arrestin, luminescence, 90 min; 100% = 57 uM dopamine signal. activation, % (test concentration not listed); in the data active = activation above about 40%; inconclusive = about 15% to 40%; inactive = below about 15%; also: compound concentration not given in the record; the text of the record calls up to 30% inactive
# Target sequence (P14416 whole entry, looked up): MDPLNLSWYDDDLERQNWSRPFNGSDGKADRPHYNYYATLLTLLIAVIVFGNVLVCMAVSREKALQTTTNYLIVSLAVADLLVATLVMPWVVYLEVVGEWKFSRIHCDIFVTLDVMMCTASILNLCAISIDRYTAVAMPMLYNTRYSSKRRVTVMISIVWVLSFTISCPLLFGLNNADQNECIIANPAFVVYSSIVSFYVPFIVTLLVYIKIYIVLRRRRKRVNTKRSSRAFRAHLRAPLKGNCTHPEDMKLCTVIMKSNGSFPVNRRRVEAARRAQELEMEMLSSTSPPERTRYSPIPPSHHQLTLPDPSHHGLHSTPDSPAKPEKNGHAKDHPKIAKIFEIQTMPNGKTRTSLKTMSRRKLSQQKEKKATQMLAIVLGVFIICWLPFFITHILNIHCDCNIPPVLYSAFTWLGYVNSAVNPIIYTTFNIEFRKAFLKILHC
#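 DiscoveRx PathHunter D2 beta-arrestin cells (2,100/well) attached overnight, then compound-stimulated 90 min at 37 C in HBSS/10 mM HEPES/0.1% Tween-20 buffer; beta-galactosidase complementation read by luminescence after 1 h at ambient temperature. Dopamine 57 uM final (EC100) as control.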
# D2 potentiator – Beta-Arrestin HTS for Positive Allosteric Modulators of the Human D2 Dopamine Receptor: Potentiators | DiscoveRx D2 beta-arrestin cells, luminescence, 90 min; 100% = 57 uM dopamine signal | AID 624464, 2012 | potentiation, % (concentration not given with the values) | 360,000 tested, 0.23% active; active = potentiation of 50% or more; inconclusive = 30% to 50%; inactive = 30% or less;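 also: compound concentration not given in the record; tested on top of an EC20 dose of dopamine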
#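 D2 cells co-treated with compound plus 50 nM dopamine (EC20) for 90 min at 37 deg C to detect potentiation. Beta-arrestin recruitment was read as enzyme-fragment luminescence after 1 h at ambient temperature. Full response was set by 57 uM dopamine.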
# Sfp inh – qHTS Assay for Inhibitors of Bacillus subtilis Sfp phosphopantetheinyl transferase (PPTase); Biochemical Sfp PPTase activity, qHTS; Potency, µM, for inactives: max response, negative = inhibition, most hits filed as inhibitors; 310,000 tested, 3.5% active; AID 1490, 2009; active = well fitted inhibition curve with a large enough effect; inconclusive = small, poorly fitted or top-dose-only effect, or another doubt; inactive = no such curve, though single readings can be large or run the other way;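 also: the enzyme is Sfp with the accession as filed and its product quenches rhodamine fluorescence; potency is read from the fitted curve at half-maximal effect; 0% = enzyme reaction without inhibitor and -100% = no enzyme wells; top concentration of the series not given in the record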
#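 Fluorescence-quenching assay with 15 nM Sfp, 5 uM rhodamine-CoA and 12.5 uM BHQ-2-labelled ybbR peptide in pH 7.6 Hepes/MgCl2 buffer. Enzyme was pre-incubated with compound for 15 min at room temperature. Rate was taken from the 30-min fluorescence change (525/598 nm).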
# PINK1 expr mod – A Quantitative High throughput Screen to Identify Chemical Modulators of PINK1 Expression. PINK1 immunofluorescence, high-content cytometry, 24 h. Potency, µM (titrated, usually from 76.6 µM), inactives show at the highest dose activation (PINK1 increase), actives largely listed as activators. 410,000 tested, 0.2% active; active = well fitted activation curve with a large enough effect; inconclusive = small, poorly fitted or top-dose-only effect; inactive = flat fitted curve, though single readings scatter; cell line not stated here;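 also: potency is read from the fitted curve at half-maximal effect; % of control where 0% means no effect; nearly all actives have a fitted effect of over 65% in size; a mitochondrial uncoupler was the plate control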
#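 Decision-based qHTS: stable cells, 24 h exposure to five compound concentrations, CCCP as control. Fixed cells stained for PINK1 plus nuclear, mitochondrial and cell markers, cytometer read.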
# CtBP-E1A inh – qHTS Assay for Inhibitors of the CtBP/E1A Interaction | AID 651724, 2012 | 340,000 tested, 0.49% active | AlphaScreen GST-E1A/His-CtBP binding, 1536-well; active compounds read low; control for the full effect not named in the record | activity change, % (concentration not given with the values) | CtBP / adenovirus E1A interaction (AlphaScreen); in the data active means activity change below about -65%; inconclusive means about -30% to -65%; inactive means above about -30%; also: % is scaled to controls: 0 for no effect and ±100 for the full control effect
#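 Protein mix (5X: 125 nM each GST-E1A, His-CtBP) was incubated with pinned compound 2 h at 37 deg C in dark, in 50 mM Tris pH 8.0 buffer with 300 mM NaCl. Glutathione donor and nickel acceptor beads followed; AlphaScreen signal read after 1 h.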
# * hit, by the source's call; ? = inconclusive; / = not tested or not shown; & = joins results of further samples; [ ] = remark or other dose.
SMILES,Six1-Eya2 inh,TRPV1 PAM,D2 ag,D2 potentiator,Sfp inh,PINK1 expr mod,CtBP-E1A inh
CCOC(=O)c1c(-c2cccs2)csc1NC(=O)C(C)(C)C,10.9,-5.0,-7.8,-13.0,?,-0.6%[38.3 µM],12.3
O=C(CSc1nc2c(sc3ccccc32)c(=O)n1Cc1ccccc1)NCC1CCCO1 (stereo not given),3.7,3.6,1.9,-3.1,9.9%,/,0.3
Cc1cc(C)c2nc(N(CCCN(C)C)C(=O)C3=COCCO3)sc2c1,-0.3,0.0,-3.2,-41.3,/,-0.4%,3.2
CCOC(=O)C1=NN(c2cccc(Cl)c2)C2=NC(C)=C(C(=O)OC)C(c3cccs3)N12 (stereo not given),-1.2,-4.6,-3.4,-29.4,-8.1%,/,1.4
O=S(=O)(Nc1ccccc1)c1ccc(F)cc1,-1.3,2.9,-4.3,-3.6,9.2%,3.6%,-0.7
CCc1ccc(NC(=O)C(C)Nc2ccc(S(=O)(=O)NC(C)=O)cc2)cc1 (stereo not given),4.1,-12.4,-3.1,3.8,-12.6%,0.5%,2.6
COc1ccc(C2OC(=O)Cc3cc(OC)c(OC)cc32)cc1 (stereo not given),14.0,3.3,6.3,-3.5,8.1%,-0.5%,/
CCC(C)c1ccc(OCCn2cc(/C=N/NC(=O)CSc3nnc(C)s3)c3ccccc32)cc1 (stereo not given),-17.6,2.7,-4.0,0.8,-9.2%,10.0%,-15.9
Cc1cccc(N(Cc2ccccc2)C(=O)C2CCN(C(=O)c3ccccc3C)CC2)c1,-4.9,-3.8,1.2,-9.7,/,-0.2%,-20.2
O=C(O)c1ccccc1C(=O)N1CCN(Cc2ccc3c(c2)OCO3)CC1,5.3,-3.5,4.0,-8.1,10.8%,-1.9%,8.9
O=S(=O)(NC1CCN(Cc2ccccc2)CC1)c1ccc(Cl)cc1,-13.7,/,-5.8,-12.1,14.0%,0.9%,-0.1
C=CCOc1cccc(/C=N/NC(=O)CC(=O)NC2CCCCC2)c1,0.2,-0.7,-4.4,-9.1,15.4%,6.1%,2.1
C=C1C2(C(=O)Nc3ccc(SC(F)F)cc3)CCC(C2)C1(C)C (stereo not given),0.6,-22.0,-0.5,-1.9,15.5%,13.1%,16.7
CCO[C@@H]1OC(C(N)=O)=C[C@H](C2CCCCC2)[C@H]1CCCO,24.3,-2.5,-0.7,-0.7,5.9%,1.5%,1.1
COc1ccc(-c2nc3ccc(Br)cn3c2Cc2ccccc2C(F)(F)F)cc1OC,-13.6,/,-6.0,-4.8,/,?,-4.0
CCCNC(=O)C1(C)CCN(C(=O)COc2ccc(C(C)(C)C)cc2)C1 (stereo not given),2.8,/,-6.9,-6.8,/,0.7%,0.5
O=C(NCCc1nc2ccccc2[nH]1)/C(=C/c1ccc(F)cc1)NC(=O)c1ccco1,-2.5,16.7,-3.0,-27.6,10.0%,0.3%,/
CCCN(CCC)CCNC(=O)c1cc2c(-c3ccc(Cl)cc3)nn(C)c2s1,-7.4,-3.8,?,-3.2,-4.7%,-3.4%&2.5%,-0.6
O=S(=O)(c1ccc(NC2CCCc3ccccc32)nc1)N1CCOCC1 (stereo not given),-1.5,-0.2,0.4,-10.7,3.7%,-4.0%,-5.6
O=C(O)c1ccccc1-c1nnc2c(Cl)cc(C(F)(F)F)cn12,7.2,8.7,-8.9,-17.9,-5.8%,-1.6%,-21.0
COc1cc(C2c3cc4c(cc3OC(NNC(N)=O)C2C)OCO4)cc(OC)c1OC (stereo not given),0.3,/,-1.3,0.0,/,5.2%,-24.0
Cc1noc(C)c1COc1ccc(C(=O)OCC(=O)N2c3ccccc3NC(=O)C2(C)C)cc1,3.2,-12.3,2.3,14.0,-26.8%,6.6%,-9.0
CCOC(=O)Cc1csc(NC(=O)CSC2=NCCS2)n1,2.3,12.0,-2.7,0.4,12.4%,0.6%,4.3
COc1cccc(CNC(=O)C2CCN(S(=O)(=O)c3ccc4c(c3)CCC(=O)N4)CC2)c1,-10.1,?,-0.4,-3.8,-2.1%,-0.2%,-5.4
CCO[C@H]1OC(C(=O)N2CCOCC2)=C[C@@H](c2ccc(C(F)(F)F)cc2)[C@@H]1CCCO,9.2,-26.0,1.0,-8.9,21.8%,0.6%,-15.0
COc1ccc2nc(SCC(=O)NC3CCCCC3C)[nH]c2c1 (stereo not given),-2.2,-12.8,0.9,2.9,/,6.0%,6.1
CCCn1c(=O)n(CC(=O)NCC2CCCO2)c(=O)c2c3c(sc21)COC(C)(C)C3 (stereo not given),11.1,22.4,-0.2,-7.3,13.5%,-0.8%,99.0
CCN(c1ccc(C)cc1C)S(=O)(=O)c1nnc(NC(=O)C(C)C)s1,3.6,-12.3,7.8,4.1,20.0%,10.6%,4.2
Cc1ccc(NC(=O)c2ccc3c(=O)n4c(nc3c2)CCCCC4)nc1,-0.6,-20.0,-1.6,-7.2,/,3.2%,-2.4
CCOc1ncccc1C(=O)NCC(c1ccccc1)N(C)C (stereo not given),0.1,-10.3,-2.2,-22.9,20.1%,-0.1%,3.5
CCC(=O)c1ccc(OCC(=O)Nc2ccc3nc(C)sc3c2)cc1,0.9,3.7,-2.8,-13.3,19.9%,9.1%,/
O=C(COC(=O)/C=C/c1ccccc1[N+](=O)[O-])Nc1ccc(S(=O)(=O)N2CCOCC2)cc1,-4.8,/,-1.1,-10.2,/,-0.4%,-4.7
CCc1ccccc1NC(=S)NNC(=O)c1ccccc1Cl,1.5,-8.2,-11.7,-17.3,22.7%,2.9%,/
O=C(COc1ccccc1)NNc1nc2c(F)cccc2s1,-3.4,6.9,0.9,19.8,25.0%,-1.6%,1.4
COc1ccc(N(C(=O)/C=C/C(=O)Nc2cc(C)on2)C(C(=O)NC2CCCC2)c2ccccc2C)cc1 (stereo not given),-2.7,-12.6,-0.2,-7.8,5.7%,-0.9%,/
C/C(=N/NC(=O)c1ccccn1)c1c[nH]c2ccccc12,-12.9,3.7,-6.2,-22.1,5.3%,0.2%,/
c1cn2c(NC3CCCCC3)c(-c3ccc(SC4CCCCC4)cc3)nc2cn1,9.4,?,2.2,-5.7,/,5.5%,7.2
Cc1cc(C)n2nc(C(=O)OC(C)C(=O)c3ccccc3)nc2n1 (stereo not given),9.9,6.9,2.1,-18.2,/,-1.5%,-7.2
COc1ccc(S(=O)(=O)Cc2ccc(C(=O)N3CCN(C(=O)c4ccco4)CC3)o2)cc1,-3.7,/,-4.4,-6.3,-0.4%,2.0%,3.0
COc1ccccc1C(c1nnnn1CS(=O)(=O)c1ccc(C)cc1)N1CCSCC1 (stereo not given),-6.8,-1.7,-2.1,2.8,15.3%,1.1%[38.3 µM],-6.0
COc1cccc(NC(=O)C(Sc2nc3ccccc3c(=O)n2CC(C)C)c2ccccc2)c1 (stereo not given),2.3,?,0.6,-2.0,-6.5%,2.9%,1.3
CC(C)Cc1nc(N2CCN(C(=O)C(C)C)CC2)c(C#N)c2c1CCC2,0.3,-0.2,-4.2,-13.6,-21.5%,-1.1%,2.3
O=C(Cn1ncc2c3ccccc3n(Cc3ccccc3)c2c1=O)N1CCN(c2ncccn2)CC1,-25.2,11.9,-1.4,7.8,-10.8%,-3.8%,-26.6
O=C(NCc1ccco1)C1CCCN(S(=O)(=O)c2cc(Cl)ccc2Cl)C1 (stereo not given),-0.5,-3.7,-1.1,-11.6,8.6%,1.2%,8.4
CC(C)N(Cc1cnn(C)c1)Cc1nc(Cc2ccccc2Cl)no1,3.6,-1.0,-1.8,7.3,20.9%,2.8%,3.2
c1ccc2c(c1)CC(N1CCCCC1)c1ccccc1N2 (stereo not given),1.9,3.9,-6.9,-29.2,14.5%,-1.0%,8.4
Cc1cc(C)n(C(=O)c2ccc(S(=O)(=O)NCC3CCCO3)cc2)n1 (stereo not given),-5.3,-1.9,-1.6,?,4.9%,4.4%,-7.0
CCOc1cc(C(=O)OC(C)C(=O)Nc2ccc(NC(C)=O)cc2)ccc1OCC(=O)N1CCCCC1 (stereo not given),-3.9,13.6,-4.9,-5.7,17.7%,1.8%,4.5
CCCNC(=S)N1CCN(Cc2ccc3c(c2)OCO3)CC1,-4.1,23.4,-4.2,-7.8,-10.1%,-0.4%,15.4
O=C(OCn1ncc(Br)c(Br)c1=O)c1ccc(F)cc1,-7.3,1.5,-4.8,-11.3,50.1µM*,-1.5%,7.7
# Later entries.
SMILES,Six1-Eya2 inh,TRPV1 PAM,D2 ag,D2 potentiator,Sfp inh,PINK1 expr mod,CtBP-E1A inh
OC(c1ccc(F)c(F)c1)c1nc(-c2cnc3ccccc3c2)cs1 (stereo not given),7.2,/,6.9,-6.7,/,0.4%,-19.9
CCCN1CCC(=O)N([C@H](CSc2ccccc2)c2ccccc2)CC1,-12.5,-2.6,-0.5,-28.1,9.0%,1.2%,/
COc1ccc(C(=O)CC(Nc2ccc([N+](=O)[O-])cc2)c2ccc(OC)cc2)cc1 (stereo not given),-19.7,?,-1.6,-10.1,7.7%,-7.0%[38.3 µM],-20.3
O=C(CCCOc1ccc(Cl)cc1Cl)NN1CCOCC1,0.2,-0.3,-1.2,-14.8,-19.6%,3.1%,0.3

# Quoted at random: 2 entries already listed.
SMILES,Six1-Eya2 inh,TRPV1 PAM,D2 ag,D2 potentiator,Sfp inh,PINK1 expr mod,CtBP-E1A inh
COc1ccc(C(=O)CC(Nc2ccc([N+](=O)[O-])cc2)c2ccc(OC)cc2)cc1 (stereo not given),-19.7,?,-1.6,-10.1,7.7%,-7.0%[38.3 µM],-20.3
CCCN1CCC(=O)N([C@H](CSc2ccccc2)c2ccccc2)CC1,-12.5,-2.6,-0.5,-28.1,9.0%,1.2%,/

# Three of the entries above in order of their number in D2 ag, high to low.
SMILES | D2 ag
O=C(O)c1ccccc1C(=O)N1CCN(Cc2ccc3c(c2)OCO3)CC1 | 4.0
O=C(NCc1ccco1)C1CCCN(S(=O)(=O)c2cc(Cl)ccc2Cl)C1 (stereo not given) | -1.1
Cc1ccc(NC(=O)c2ccc3c(=O)n4c(nc3c2)CCCCC4)nc1 | -1.6
